Screening results as filed in PubChem BioAssay.
Rango dissoc inh: inhibitors of RanGTP-induced Rango-importin beta complex dissociation. Potency, µM (doses to about 46.1 µM), for the others: at the highest dose activity change, negative = inhibition. Biochemical FRET Rango-importin beta, RanGTP-induced dissociation. hit rate 0.071% among 340,000. O95149+P62826. AID 540253; active means falling FRET ratio curve, often poorly fitted, with flat reads before Ran was added; inconclusive means other falling curves, or compound fluorescence or quenching; inactive means flat or rising ratio curve;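 further: potency means the concentration at half of the fitted maximal effect; % of control where 0% means no effect; nearly all actives have a fitted effect of over 45% in size; -100% = wells without RanGTP and RCC1; the record marks most hits as doubtful in a second field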
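Rango/importin beta premix (0.1/0.25 uM final), PBS + 1 mM DTT + 0.02% Tween-20 + 0.1% BSA; cpd 5 min RT; FRET pre-read; + RanGTP-RCC1 (0.6 uM Ran, 2 mM GTP, 0.2 uM RCC1); 45 min RT; FRET post-read, ex 430, em 486/530 nm.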
GLA inh pH 4.5: blocks human alpha-galactosidase A at pH 4.5 | purified enzyme, 4-MU-alpha-Gal fluorescence, pH 4.5 | P06280 | 230,000 tested, under 10 active | AID 1467 | activity change, negative = inhibition, % at 105 µM; inconclusive = small, poorly fitted or top-dose-only inhibition, or a rising curve; inactive = flat fitted curve, though single readings scatter; no compound was filed as active;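 further: 0% = full activity with enzyme and -100% = basal without enzyme; dose as in the result columns while the protocol names 77 µM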
Rango-impB inh: Rango-importin beta binding inhibition; Rango CFP/YFP FRET sensor + importin beta, 45 min; Q14974; hit rate 0.031% among 340,000; AID 540263; Potency, µM (highest dose often 92.2 µM), inactives show top-dose inhibition of complex formation; active = rising FRET ratio curve, often small or poorly fitted; inconclusive = mostly compound fluorescence or quenching in the first reads; inactive = flat curves in all reads;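 further: potency means the concentration at half of the fitted maximal effect; 0% = DMSO wells and 100% = buffer wells lacking importin beta; nearly all actives have a fitted effect of over 15% in size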
Target sequence (Q14974 whole entry, looked up): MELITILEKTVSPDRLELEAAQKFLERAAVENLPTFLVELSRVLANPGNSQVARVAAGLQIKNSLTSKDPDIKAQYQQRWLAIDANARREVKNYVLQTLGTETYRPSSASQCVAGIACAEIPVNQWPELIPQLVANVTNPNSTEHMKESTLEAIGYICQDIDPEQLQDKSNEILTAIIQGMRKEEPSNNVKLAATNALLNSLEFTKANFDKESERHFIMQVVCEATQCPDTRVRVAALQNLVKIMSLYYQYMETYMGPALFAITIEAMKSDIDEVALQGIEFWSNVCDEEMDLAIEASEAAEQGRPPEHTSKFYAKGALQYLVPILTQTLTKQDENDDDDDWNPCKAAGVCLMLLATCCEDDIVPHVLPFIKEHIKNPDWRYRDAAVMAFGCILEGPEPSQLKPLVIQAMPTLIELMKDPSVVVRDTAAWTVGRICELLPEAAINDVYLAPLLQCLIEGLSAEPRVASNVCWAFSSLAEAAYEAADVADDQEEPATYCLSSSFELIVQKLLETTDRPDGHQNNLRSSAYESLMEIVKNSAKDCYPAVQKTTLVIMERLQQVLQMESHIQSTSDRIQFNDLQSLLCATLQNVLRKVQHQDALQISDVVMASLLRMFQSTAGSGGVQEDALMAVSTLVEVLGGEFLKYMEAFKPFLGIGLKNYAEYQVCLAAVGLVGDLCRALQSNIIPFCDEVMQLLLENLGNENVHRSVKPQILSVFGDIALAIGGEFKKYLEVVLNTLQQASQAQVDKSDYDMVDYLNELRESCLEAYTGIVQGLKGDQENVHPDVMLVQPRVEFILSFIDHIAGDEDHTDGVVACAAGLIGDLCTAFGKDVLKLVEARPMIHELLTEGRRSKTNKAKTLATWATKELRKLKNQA
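FRET biosensor (snurportin 1 IBB flanked by EYFP and cerulean), 50 nM, with compound 5 min, then 0.125 microM importin beta in PBS, 1 mM DTT, 0.02% Tween-20, 0.1% BSA. CFP/YFP ratio read after 45 min at room temperature; pre-read flags interference.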
miR-21 reporter: miR-21 reporter, rising signal; HeLa miR-21 FLuc reporter, luciferase, 48 h; Potency, µM (series often up to 38.3 µM), without a hit: at the highest dose reporter change, positive = more light; 340,000 tested, under 10 active; AID 2288; active = well fitted rising curve with a large enough effect; inconclusive = small, poorly fitted or top-dose-only effect; inactive = no such curve, though single readings can be large or run the other way;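 further: % of control where 0% means no effect; miR-21 action dims this reporter so a rising signal means less miR-21 action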
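Luminescence from a firefly luciferase reporter carrying a miR-21 binding site downstream, stably expressed under a CMV promoter in HeLa cells that make miR-21 endogenously, reports miRNA modulation after 48 h compound exposure up to approximately 40uM final.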
The depositor's hits bear a star; ? = inconclusive; nt = no result given.

Molecule | Rango dissoc inh | GLA inh pH 4.5 | Rango-impB inh | miR-21 reporter
COc1ccccc1NS(=O)(=O)c1cc(NC(=O)Cn2cnc3c2c(=O)n(C)c(=O)n3C)ccc1C | -14% | 0 | -3.7% | -8%
CN1CCc2c(sc3c2C(=O)NC(c2ccccc2)N3)C1 (stereo not given) | ? | 22 | ? | -23%
Cc1ccc(CNC(=O)[C@]2(C)CCC[C@@]3(C)C4CC[C@@]5(C)C[C@]4(CCC32)CC5=O)cc1 (stereo not given in full) | 0% | nt | -3.4% | nt
O=c1c2c3c(sc2ncn1/N=C/c1ccc([N+](=O)[O-])o1)CCCC3 | 1% | ? | -0.2% | -6%
CCCCOCCCNC(=O)C1c2ccccc2Oc2ccccc21 | 1% | nt | -0.5% | 3%
CCN(CC)S(=O)(=O)c1ccc(N2CC(C(=O)NCCc3c[nH]c4ccccc34)CC2=O)cc1 (stereo not given) | -5% | nt | ? | nt
CC(=O)n1cc(/C=N/NC(=O)c2cccc(O)c2)c2ccccc21 | 1% | nt | -3.1% | -26%
CSCc1cc(N2CCOCC2)nc(SCc2ccc(Cl)cc2Cl)n1 | 20% | 3 | -3.8% | -25%
COc1cc(OC)c(C(=O)OCC(=O)Nc2ccccc2Cl)cc1OC | 7% | nt | 1.6% | -9%
CC(C)CC1Nc2ncnc(N3CCN(c4ccccc4)CC3)c2N(Cc2ccc(Br)cc2)C1=O (stereo not given) | -6% | nt | ? | nt
O=C(/C=C/Nc1ccc(Br)cc1F)c1ccccc1 | -27% | 2 | -2.5% | 20%
CCC1CCc2sc(C(=O)NCC(c3ccc(OC)cc3)N3CCCC3)cc2C1 (stereo not given) | 30% | nt | 58µM* | nt
Cc1ccc(C(=O)N(CC(=O)NC2CCCC2)c2cccc(F)c2)s1 | -11% | nt | -0.2% | 0%
CNc1nc2c(c(=O)[nH]c(=O)n2C)n1CCCc1ccccc1 | 33% | nt | ? | 4%
CC1(C)Cc2c(sc3c2c2ncnn2c2nnc(SCC(=O)NCc4ccco4)n32)CO1 | 0% | -5 | -0.4% | 0%
NC(=O)c1cc(NC(=O)COC(=O)CCCN2C(=O)c3cccc4cccc(c34)C2=O)cc(C(N)=O)c1 | -9% | nt | 1.4% | nt
CCn1c(C)c(C(C)=O)c(N2CCN(C(c3ccccc3)c3ccccc3)CC2)nc1=S | 12% | 8 | -0.8% | 13%
COc1ccc(C(=S)N2CCN(S(=O)(=O)c3ccccc3)CC2)cc1 | 1% | nt | -5.1% | 0%
Cc1cccc(N2C(=O)c3cccc4c(N(C)CCO)ccc(c34)C2=O)c1 | ? | -1 | ? | -1%
COc1ccc(CCNC(=O)CS(=O)(=O)c2cn(CC(=O)N3CCCC3)c3ccccc23)cc1OC | 8% | -5 | -0.3% | 10%
O=C(c1cccc(S(=O)(=O)Nc2ccc(Br)cc2)c1)N1CCC1 | 44% | nt | 0.1% | -1%
S=C1NCCC12C(=S)Nc1ccccc12 (stereo not given) | 2% | nt | 1.2% | nt
COc1ccc(NC(=O)c2ccc(C#CC(C)(C)O)cc2)cc1 | 7% | 9 | -0.7% | -22%
N#CC1=C(N)SC(N)=C(C#N)C1c1ccoc1 | nt | 8 | nt | -4%
CC(=O)N1CCN(S(=O)(=O)c2ccccc2)C1c1ccccc1 (stereo not given) | -9% | 3 | 0.9% | -4%
COCCCNC(=O)c1ccccc1N(Cc1ccccc1)S(=O)(=O)c1ccccc1 | -2% | nt | 0.8% | -5%
Cc1ccc2[nH]c3c(c2c1)CCN1C(=O)OC(C)(C)C31C (stereo not given) | -17% | -7 | 8.4% | 6%
COc1ccc(NC(=O)COC(=O)CCNS(=O)(=O)c2ccc(Cl)cc2)cc1 | 3% | 1 | -0.8% | 0%
CC(C)c1ccc(CNc2c([N+](=O)[O-])c(=O)oc3ccccc23)cc1 | 19% | 2 | 1.9% | -21%
CCc1ccc(N(CC(=O)NC2CCCCC2)C(=O)CCC(=O)Nc2ccccn2)cc1 | -4% | nt | -1.2% | -5%

Compound profiles (already shown). Values in the order: Rango dissoc inh	GLA inh pH 4.5	Rango-impB inh	miR-21 reporter
CCCCOCCCNC(=O)C1c2ccccc2Oc2ccccc21 reads 1%	nt	-0.5%	3%
O=c1c2c3c(sc2ncn1/N=C/c1ccc([N+](=O)[O-])o1)CCCC3 reads 1%	?	-0.2%	-6%

Continuation.
Molecule | Rango dissoc inh | GLA inh pH 4.5 | Rango-impB inh | miR-21 reporter
O=c1oc2ccc(Cl)cc2cc1-c1nnc(Nc2cccc(C(F)(F)F)c2)s1 | 3% | 4 | 0.7% | -1%
Cc1c(Cl)cccc1NC(=O)c1ccco1 | -11% | nt | -4.2% | -27%
O=C(CSc1ccc2c(c1)OCCO2)NCCc1ccc(Cl)cc1Cl | 0% | -4 | 1.7% | -4%
Cn1c(C(=O)O)c(CC(=O)NCC2COc3ccccc3O2)c2ccccc21 (stereo not given) | 5% | -30 | -0.5% | -2%
O=C(O)CC1SC(N/N=C/c2ccc(Br)cc2)NC1=O (stereo not given) | 0% | -7 | 0.4% | -14%
C/C(=N\OCC(=O)NCC(F)(F)F)c1cc2ccccc2o1 | 2% | -2 | 5.3% | -58%
COc1ccc(OC)c(NC(=O)CSc2nnc(-c3ccco3)n2-c2ccc(C(=O)O)cc2)c1 | 22% | 2 | 1.5% | -4%
COc1ccc(-c2csc(NC(=O)c3ccccc3S(C)(=O)=O)n2)cc1 | 12% | -15 | 1.8% | 6%
CC(C)CNC(C)C(=O)Nc1ccc(S(N)(=O)=O)cc1 (stereo not given) | -5% | 3 | -3.3% | -1%
CCCCN(CC(O)COc1cccc(C)c1)CC(O)COc1cccc(C)c1 (stereo not given) | 0% | nt | -1.1% | 19%
CCCCOC(=O)C1C2C=CC3(CN(CCc4ccccc4)C(=O)C13)O2 (stereo not given) | 6% | 6 | -3.8% | -7%
CCC(C)(C)C1CCc2[nH]nc(C(=O)NC(C)C)c2C1 (stereo not given) | 1% | nt | 0.1% | nt
CC(=O)c1c(N2CCN(c3ccccn3)CC2)nc(=S)n(-c2ccccc2)c1C | -17% | 3 | -4.7% | -19%
CC(C)(C)OC(=O)C[C@@H]1C/C=C\C[C@@H](CC(=O)N[C@@H](CO)Cc2ccccc2)C(=O)N2CCC[C@H]2COC1=O | 12% | nt | 5.5% | nt
CCOc1ccc(C2CC(=O)N(Nc3ccc([N+](=O)[O-])cc3[N+](=O)[O-])C2=O)cc1 (stereo not given) | 44% | -9 | 0.2% | 4%
CC(C)CCNC(=O)CCCc1ccccc1 | 9% | -3 | -5.6% | 1%
O=C(O)C(Cc1c[nH]c2ccccc12)N1C(=O)C2C3c4ccccc4C(c4ccccc43)[C@@H]2C1=O (stereo not given in full) | 8% | -2 | 3.1% | 0%
CSCCC(NC(C)=O)C(=O)OCC(=O)N(c1ccccc1)c1ccccc1 (stereo not given) | -12% | -2 | -1.2% | 0%
CCOC(=O)N1CCC(Nc2c(NCCCN3CCN(CC)CC3)c(=O)c2=O)CC1 | -8% | 10 | 1.2% | -3%
Cc1sc2nc3c4ccccc4c(NCc4ccco4)nn3c(=O)c2c1C | -20% | 0 | ? | -44%
Cc1ccnc(Nc2nc(-c3ccc(O)c(O)c3)cs2)c1 | 2% | nt | 0.8% | -74%
COC(=O)C1=C(C)NC(=S)NC1c1sccc1C (stereo not given) | -3% | 7 | -5.5% | 2%
CCOC(=O)C1=NN(c2ccccc2)C2=NC(C)=C(C(=O)OC)C(c3cccs3)N12 (stereo not given) | 1% | nt | -0.4% | nt
Cc1nn(CC(=O)NCc2cccnc2)c(C)c1[N+](=O)[O-] | 14% | ? | -2.3% | -1%
CCS(=O)(=O)N1CCC(C(=O)Nc2ccc3c(c2)CCC3)CC1 | 4% | nt | -2.2% | -2%
CCOc1ccc(N(Cc2cc3ccc(C)cc3[nH]c2=O)C(=O)COC)cc1 | -3% | 5 | 1.8% | -6%
CCC(=O)c1ccc(OCc2ccc(C(=O)OC)cc2)cc1 | 14% | 2 | 1.4% | -61%
CC(NCc1cc(Br)ccc1OCC(N)=O)C12CC3CC(CC(C3)C1)C2 (stereo not given) | 1% | nt | -0.6% | 15%
O=C(Oc1ccccc1)N1CCCC1 | -8% | nt | 1.3% | 0%
Cc1cc(=O)[nH]c(NN=Cc2cc(Br)ccc2O)n1 | ? | nt | ? | nt
O=C(O)c1ccc(S(=O)(=O)N2CCCC2)cc1 | 10% | nt | -1.8% | 0%
O=C(Nc1ccccc1Cl)c1cnccn1 | -4% | -6 | 0.1% | -24%
Cc1ccc(SCC(=O)Nc2oc(C)c3c(C)n[nH]c(=O)c23)cc1C | 21% | nt | -0.5% | nt
CCCCc1nc(NCCO)c(C#N)c2c1CCCC2 | 7% | -19 | 0.2% | 20%
CC(=O)Nc1ccc(NC(=O)CSc2ccc(C)cc2)cc1 | 1% | -5 | 0.4% | -8%
COC(=O)C1CN(C(=O)C(C)Oc2ccc(C(C)C)cc2)c2ccccc2O1 (stereo not given) | 21% | nt | 4.7% | -1%
CC(=O)N1N=C(c2ccccc2O)OC1(C)CC(=O)Nc1ccccc1 (stereo not given) | -2% | 8 | -0.1% | 1%
CCOC(=O)C1C(c2ccccc2)N(C)OC1(O)C(F)(F)F (stereo not given) | 14% | -7 | -0.5% | 0%
CN(C)CCCNC(=O)c1ccc(-c2cc(O)c3ncccc3c2)cc1 | 2% | nt | -0.4% | nt
O=[N+]([O-])c1ccc(NC(=S)N2CCN(c3ccccn3)CC2)cc1 | 33% | nt | 0.2% | -8%
CCN(c1ccc(OC)cc1)S(=O)(=O)c1nnc(NC(=O)C(C)C)s1 | 5% | nt | 0.8% | 0%
O=c1c2ccccc2oc2cc(Br)ccc12 | 7% | nt | -4.0% | nt
COc1ccc(S(=O)(=O)N2Cc3ccccc3CC2C(=O)N2CCOCC2)cc1 (stereo not given) | -7% | 6 | 4.9% | -4%
COc1ccc2nc(SCC(=O)Nc3ccc4[nH]c(=O)[nH]c4c3)[nH]c2c1 | 0% | nt | -1.2% | nt
Nc1n[nH]c(-c2ccc([N+](=O)[O-])cc2[N+](=O)[O-])n1 | ? | 2 | -1.0% | -1%
O=C(COC(=O)c1ccccc1OC(F)F)Nc1ccc(N2CCCCC2)cc1 | -3% | nt | 0.0% | nt
CC(OC(=O)CCc1nc2ccccc2c(=O)[nH]1)C(=O)c1ccc(C(C)(C)C)cc1 (stereo not given) | -13% | 1 | ? | -9%
COC(=O)c1ccccc1N1C(=O)[C@@H]2C(c3ccc(F)cc3)=NO[C@@H]2C1=O | -11% | 13 | 0.0% | 0%
Cn1cccc1C(=O)NC1CCCCCC1 | -9% | nt | 2.3% | nt
O=C(CCc1ccncc1)NC1CCCc2c1cnn2-c1cc(F)cc(F)c1 (stereo not given) | 0% | nt | 0.4% | 5%
COc1ccc(CN2CCC3CC2c2cc(Cl)ccc23)cc1 (stereo not given) | 2% | nt | -1.7% | nt
CCOC(=O)c1c(C)nn(-c2ccc(NC(=O)c3cccs3)cc2)c1C | -8% | nt | -0.6% | 17%
CCc1ccc[n+](-c2[nH]c(=O)sc2/C=N/N=C(\[O-])c2ccncc2)c1 | -13% | nt | 5.3% | -3%
CC1CC(C)CN(S(=O)(=O)c2cc3c4c(c2)CCN4C(=O)CC3)C1 (stereo not given) | -9% | nt | -0.4% | nt
Cc1sc2nc(SC(C)C)nc(N)c2c1C | -27% | -3 | 7.7% | -15%
N#Cc1c(SCC(N)=O)nsc1SCc1ccc(Cl)cc1 | 1% | -1 | -1.4% | 4%
CC(=O)c1ccc2c(c1)Cc1cc(C(C)=O)ccc1-2 | 0% | -15 | -0.5% | -72%
O=C1CCC(C(=O)OCC(=O)N2N=C3/C(=C/c4ccccc4)CCCC3C2c2ccccc2)N1 (stereo not given) | 22% | 1 | 3.0% | 14%
Cc1cc(C)n2nc(SCc3cccc(S(=O)(=O)N(C)C)c3)nc2n1 | -3% | nt | -0.4% | -8%

These rows are one share of the data, so the mix of outcomes need not match the whole.
